Assay outcomes as filed in PubChem.
MARV entry inh: qHTS for inhibitors of binding or entry into cells for Marburg Virus; AID 540276, 2011; Marburg virus pseudotyped entry inhibition, cell reporter; control for the full effect not named in the record; about a third of the inactives were read at about 46 µM; 300,000 compounds, 1.8% hits; Potency, µM (top dose mostly 37.8 µM), inactives show at the top dose activity change, negative = inhibition, most hits filed as inhibitors; active = well fitted inhibition curve with a large enough effect; inconclusive = small, poorly fitted or top-dose-only effect, or effect the other way; inactive = flat fitted curve, though single readings scatter; tested in HEK293 cells; about a fifth of its hits are not listed in these tables; note: % is set by controls: 0 for no effect and ±100 for the full control effect; luciferase read-out
SARS PLpro yeast: qHTS of Yeast-based Assay for SARS-CoV PLP; 330,000 compounds, 0.19% hits; Potency, µM (highest dose often 32.9 µM), for the others: at the highest dose activity, positive = growth rescue; S. cerevisiae expressing SARS-CoV PLpro, growth rescue; control for the full effect not named in the record; active means well fitted rising curve with a large enough effect; inconclusive means small, poorly fitted or top-dose-only effect; inactive means no such curve, though single readings can be large or run the other way; note: 0% is about no effect; nearly all actives have a fitted effect of over 55% in size; growth read by luminescence after 48 h
Cruzain noTriton: qHTS Assay for Promiscuous and Specific Inhibitors of Cruzain (without detergent) | Cruzipain (Trypanosoma cruzi), P25779 | purified cruzain, Z-FR-AMC fluorescence, no detergent | Potency, µM, inactives show max response, negative = inhibition, actives largely listed as inhibitors | 200,000 compounds, 2.3% hits | AID 1476, 2009;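 note: plate controls were enzyme without inhibitor for no effect and buffer without enzyme for full effect; nearly all actives have a fitted effect of over 40% in size; top concentration of the series not given in the record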
Target sequence (P25779 123-467 limits assumed): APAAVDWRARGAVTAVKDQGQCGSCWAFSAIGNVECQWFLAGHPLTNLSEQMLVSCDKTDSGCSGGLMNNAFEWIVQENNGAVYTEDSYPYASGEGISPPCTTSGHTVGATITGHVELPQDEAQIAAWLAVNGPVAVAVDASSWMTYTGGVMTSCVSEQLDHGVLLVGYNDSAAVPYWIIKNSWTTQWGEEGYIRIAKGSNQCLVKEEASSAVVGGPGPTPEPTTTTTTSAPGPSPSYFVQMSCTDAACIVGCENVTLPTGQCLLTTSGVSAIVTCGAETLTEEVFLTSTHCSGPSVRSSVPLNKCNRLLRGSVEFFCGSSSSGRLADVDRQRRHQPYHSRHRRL
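Purified cruzain at 1.5 nM, pre-incubated 15 min with compound at room temperature in 100 mM sodium acetate pH 5.5, 5 mM DTT, 0.00005% Triton X-100. Reaction started with 2 uM Z-FR-AMC; AMC fluorescence increase over 60 s gives rate.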
RE007 growth inh: qHTS Assay for Inhibitors of the HIV-1 protein Vpr. Potency, µM (doses to about 92.2 µM), for the others: at the highest dose activity change, negative = less growth. S. pombe RE007 Vpr strain, BacTiter-Glo ATP luminescence, 24 h; control for the full effect not named in the record. AID 651644, 2012. 360,000 compounds, 0.21% hits; active = well fitted falling curve with a large enough effect; inconclusive = small, poorly fitted or top-dose-only effect; inactive = no such curve, though single readings can be large or run the other way;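 note: % is set by controls: 0 for no effect and ±100 for the full control effect; nearly all actives have a fitted effect of over 50% in size; the assay follows cell death caused by Vpr and the record does not say whether a fall means rescue or toxicity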
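Fission yeast strain RE007, carrying one chromosomally integrated HIV-1 vpr copy, was seeded at OD 0.01 in PMG+AL medium with 23 nL pinned compound. After 24 h at 30 °C and 99% humidity, viability was read by BacTiter-Glo luminescence.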
2A StopGo: High Throughput Screening for Foot and Mouth Disease Virus Antivirals. human cells with a luciferase reporter of 2A StopGo recoding; control for the full effect not named in the record. Potency, µM (highest dose often 57.9 µM), inactives show at the top dose signal change, negative = less light. 410,000 compounds, 1.2% hits; active = well fitted falling curve with a large enough effect; inconclusive = small, poorly fitted or top-dose-only effect; inactive = no such curve, though single readings can be large or run the other way; tested in HEK293T cells; note: % is set by controls: 0 for no effect and ±100 for the full control effect; nearly all actives have a fitted effect of over 45% in size; luciferase light after 4 h
Cruzain Triton: qHTS Assay for Promiscuous and Specific Inhibitors of Cruzain (with detergent). Potency, µM, inactives show max response, negative = inhibition, hits mostly inhibitors. AID 1478, 2009. Cruzipain (Trypanosoma cruzi), P25779. purified cruzain, Z-FR-AMC fluorescence, 0.01% Triton. 200,000 compounds, 0.43% hits;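 note: plate controls were neutral wells for no effect and buffer without enzyme for full effect; nearly all actives have a fitted effect of over 40% in size; top concentration of the series not given in the record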
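Steps: dispense cruzain (1.5 nM final) in acetate buffer pH 5.5 with DTT and 0.01% Triton X-100; pin-transfer compounds; incubate 15 min RT; add Z-FR-AMC (2 uM final); read fluorescence every 30 s, using the 60 s intensity change.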
NS1 inh: qHTS Assay for Inhibitors of Influenza NS1 Protein Function | S. cerevisiae slowed by influenza A NS1, growth recovery by OD600 | Potency, µM (titrated, usually from 46.1 µM), without a hit: at the top dose activity, positive = more growth | 270,000 compounds, 0.4% hits; active means well fitted rising curve with a large enough effect; inconclusive means small, poorly fitted or top-dose-only effect; inactive means no such curve, though single readings can be large or run the other way; note: nearly all actives have a fitted effect of over 50% in size
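Recovery from NS1-induced slow growth read by OD600 in budding yeast switched to galactose assay medium (pH 6.0, -URA) at 1:100 dilution. Compound 23 nl per well; the matching strain lacking NS1 serves as control.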
Lassa entry inh: qHTS for Inhibitors of binding or entry into cells for Lassa Virus; Lassa virus pseudotype entry inhibition, cell reporter; control for the full effect not named in the record; Potency, µM (doses to about 37.9 µM), without a hit: at the highest dose activity change, negative = inhibition, most hits filed as inhibitors; 300,000 compounds, 1.2% hits; AID 540256, 2011; active means well fitted inhibition curve with a large enough effect; inconclusive means small, poorly fitted or top-dose-only effect, or effect the other way; inactive means flat fitted curve, though single readings scatter; tested in HEK293 cells; note: % is set by controls: 0 for no effect and ±100 for the full control effect; nearly all actives have a fitted effect of over 50% in size; luciferase read-out
* marks the source's active call; other numbers are inactive results; ? = inconclusive; . = no result given; [ ] = remark or other dose. Unless noted, calls come from the whole dose curve; as a rule, active = well fitted curve in the direction sought with a large enough effect; inconclusive = small, poorly fitted or top-dose-only effect, or another doubt; inactive = no such curve, though single readings can be large; an effect the other way counts as inactive or inconclusive. Potency is the fitted concentration of half-maximal effect. Outcome played no part in choosing rows; about 4.8% have a hit in one of these screens.

SMILES	MARV entry inh	SARS PLpro yeast	Cruzain noTriton	RE007 growth inh	2A StopGo	Cruzain Triton	NS1 inh	Lassa entry inh
COc1cc(OC)nc(S(C)(=O)=O)n1	?	-4%	14%	15%	-9%	-0.9%	11%	-4%
CC1(C(=O)OCC(=O)Nc2ccccc2)CC1(Cl)Cl (stereo not drawn)	?	-5%	.	1%	33%[activator]	.	.	1%
O=[N+]([O-])c1ccc(N/N=C/c2sc(N3CCOCC3)nc2-c2ccccc2)c(S(=O)(=O)Nc2ccccc2Cl)c1	.	1%	.	4%	?	.	1%	.
COc1ccc(NC(=O)CSc2ccccc2)cc1S(=O)(=O)N1CCOCC1	-2%	-4%	.	-17%	26%	.	-8%	-15%
Cc1ccc(CN(Cc2ccco2)C(=O)c2oc3c(C)c(C)ccc3c2C)cc1	?	.	25µM*	.	?	-11%	.	?
Cc1ccc(S(=O)(=O)c2nc(-c3ccco3)oc2SC(C)c2ccccc2)cc1 (stereo not drawn)	-20%[46.1 µM]	.	-3%	.	36%[activator]	-17%	.	-18%[46.1 µM]
COC(=O)COc1c(Cl)cc(C(c2c(C)[nH][nH]c2=O)c2c(C)[nH][nH]c2=O)cc1OC	-19%[46.1 µM]	1%	.	-10%	-14%	.	6%	-16%[46.1 µM]
Cc1sc2nc(SCC(=O)NCc3ccco3)n(CCc3ccccc3)c(=O)c2c1C	?	?	?	17%	0%	-0.8%	8%	-23%
CCCCC(=O)Nc1ccc(NC(=O)c2ccc(C)c([N+](=O)[O-])c2)cc1OC	-2%	6%	-8%	3%	-12%	-1.7%	13%	?
NC(=O)c1cc2cc(Br)ccc2o/c1=N/NC(=O)c1cccc(F)c1	.	-1%	.	2%	-1%	.	5%	.
O=C(O)CSc1nc(-c2ccccc2)nc2c1CCCC2	.	1%	.	-3%	-14%	.	-35%	.
COCCc1nnc(NC(=O)C23CC4CC(CC(C4)C2)C3)s1	4%	-4%	.	1%	9%	.	1%	0%
Cc1ccccc1NC(=O)c1c(-c2ccccc2)noc1C	-12%	2%	8%	-28%	-32%	0.4%	-30%	1%
Cc1ccc(NC(=O)c2c(NC(=O)C(F)(F)F)sc3c2CCCCC3)cc1	.	.	-25%	.	?	-5.7%	.	?
COc1ccc(C(C)=O)cc1CN1C(=O)NC2(CCCCC2)C1=O	10%	-5%	-4%	-1%	5%	0.7%	21%	-1%
O=C(CN(C1CCCCC1)S(=O)(=O)c1ccccc1)NCC1CCCO1 (stereo not drawn)	7%[46.1 µM]	2%	.	-1%	23%	.	1%	.
CCc1ccc(N(CC(=O)Nc2ccc(OC)cc2OC)S(C)(=O)=O)cc1	-7%	1%	14%	27%	-11%	-5.3%	-19%	-10%
Brc1ccc(N=Nc2ccc3ccccc3n2)cc1	?	-1%	.	-1%	10µM*	.	-3%	1.1µM*
C=CCc1cccc(OC)c1OCCOCCNCCO	8%	11%	8%	8%	-24%	0.0%	2%	2%
Cc1ccccc1NC(=O)c1ccc(CN2CC(=O)N3CCCCC3C2=O)cc1 (stereo not drawn)	.	3%	.	5%	-24%	.	-16%	.
Cc1nn(-c2ccccc2)c(C)c1/C=C1\C(=O)N(C)C(=S)N1C	?	-1%	.	-16%	-6%	.	.	-14%[46.1 µM]
CCOC(=O)c1ccc(NC(=O)NNC(=O)CCc2ccc(OC)cc2)cc1	-8%[46.1 µM]	7%	.	-8%	0%	.	13%	-20%[46.1 µM]
CCOc1ccccc1NC(=O)c1ccc2c(c1)CCCN2S(C)(=O)=O	26%[46.1 µM]	.	-2%	.	6%	1.1%	.	?
Cc1ccc(C(=O)/C=C/Nc2ccc(S(=O)(=O)Nc3cc(C)nc(C)n3)cc2)cc1	22%	2%	.	2%	91%[activator]	.	-13%	-15%
COc1cc(C(=O)Nc2nccs2)ccc1OCc1c(C)noc1C	11%	-12%	5%	-1%	?	-3.8%	-5%	-19%
COC(=O)N1C(=O)[C@](c2ccccc2)(C2CCCC2)N1C(=O)OC	.	0%	.	-9%	?	.	-4%	.
O=C(CCC1CCCN(C(=O)c2ccc(F)c(F)c2)C1)N1CCN(c2ccccn2)CC1 (stereo not drawn)	-25%	-1%	.	16%	?	.	-5%	-12%
COC(=O)CC1SCCNC1=O (stereo not drawn)	10%	-2%	-4%	9%	10%	0.5%	-20%	?
CC1=CC(=O)OC1Cc1ccncc1 (stereo not drawn)	-21%[46.1 µM]	4%	-8%	24%	-4%	3.4%	5%	-4%
NS(=O)(=O)c1ccc(CCNC(=O)C2CCN(S(=O)(=O)c3cccc4cccnc34)CC2)cc1	.	-5%	.	24%	-11%	.	-3%	.

Seven entries from above, reformatted.
Below each compound – MARV entry inh | SARS PLpro yeast | Cruzain noTriton | RE007 growth inh | 2A StopGo | Cruzain Triton | NS1 inh | Lassa entry inh
> O=C(CN(C1CCCCC1)S(=O)(=O)c1ccccc1)NCC1CCCO1 (stereo not drawn)
→ 7%[46.1 µM] | 2% | . | -1% | 23% | . | 1% | .
> CCc1ccc(N(CC(=O)Nc2ccc(OC)cc2OC)S(C)(=O)=O)cc1
→ -7% | 1% | 14% | 27% | -11% | -5.3% | -19% | -10%
> Brc1ccc(N=Nc2ccc3ccccc3n2)cc1
→ ? | -1% | . | -1% | 10µM* | . | -3% | 1.1µM*
> C=CCc1cccc(OC)c1OCCOCCNCCO
→ 8% | 11% | 8% | 8% | -24% | 0.0% | 2% | 2%
> Cc1ccccc1NC(=O)c1ccc(CN2CC(=O)N3CCCCC3C2=O)cc1 (stereo not drawn)
→ . | 3% | . | 5% | -24% | . | -16% | .
> Cc1nn(-c2ccccc2)c(C)c1/C=C1\C(=O)N(C)C(=S)N1C
→ ? | -1% | . | -16% | -6% | . | . | -14%[46.1 µM]
> CCOC(=O)c1ccc(NC(=O)NNC(=O)CCc2ccc(OC)cc2)cc1
→ -8%[46.1 µM] | 7% | . | -8% | 0% | . | 13% | -20%[46.1 µM]

Carrying on:
SMILES	MARV entry inh	SARS PLpro yeast	Cruzain noTriton	RE007 growth inh	2A StopGo	Cruzain Triton	NS1 inh	Lassa entry inh
CCOC(=O)c1ccc(NC(=O)Cn2nc(SC)c(S(=O)(=O)c3ccc(Cl)cc3)c2N)cc1	?	.	-28%	.	?	-1.7%	.	?
Cc1cc(C)cc(OCC(=O)OCC(=O)NCc2cccs2)c1	17%	8%	-2%	24%	0%	-3.3%	-37%	31%
Cc1c2cnn(CC(=O)NCc3ccccn3)c(=O)c2c(C)n1Cc1ccccc1	.	-8%	.	4%	-24%	.	-10%	.
Cc1cccc(C(=O)OC2CCN(C)CC2)c1	.	-1%	.	12%	12%	.	4%	.
CCOC(=O)C1CCN(CC(O)COc2ccc(C(=O)CC)cc2)CC1 (stereo not drawn)	13%	-1%	-5%	-9%	-9%	3.9%	-4%	0%
Cc1ccc(-n2ncc(C(=O)NCCN3CCC(Cc4ccccc4)CC3)c2C2CCN(C(=O)OC(C)(C)C)CC2)cc1	.	.	-1%	.	-15%	-0.2%	.	?
CCCn1c(SCC(N)=O)nnc1C(C)C	6%[46.1 µM]	3%	0%	10%	-9%	3.6%	3%	-4%
Cc1cc(Nc2cccc(Cl)c2)c2ccccc2n1	.	1%	.	-2%	?	.	-23%	.
CN(CCNC(=O)C1CCC(=O)N(Cc2cccc(F)c2)C1)CCc1ccccc1 (stereo not drawn)	-3%	-2%	.	-7%	6%	.	13%	2%
CN(CC(=O)Nc1ccccc1Cl)C(=O)C1CCN(C(=O)c2ccc(Cl)cc2)CC1	6%	3%	.	-8%	-10%	.	10%	-7%
CN1CCN(c2ccccc2NC(=O)COc2ccccc2)CC1	-22%	6%	-4%	5%	-5%	-5.3%	1%	6%
CC(NC(=O)NC(=O)c1cccc([N+](=O)[O-])c1)C1CC1 (stereo not drawn)	4%[46.1 µM]	3%	.	11%	8%	.	6%	25%[46.1 µM]
CC(C)Oc1cccc(C(=O)C2CCCN(C(=O)c3noc4c3CCCC4)C2)c1 (stereo not drawn)	?	-1%	.	-9%	-10%	.	1%	-20%[46.1 µM]
CC(=O)N1CCOc2ccc(S(=O)(=O)NCC3CCC(C(=O)Nc4ncccc4C)CC3)cc21 (stereo not drawn)	-3%[46.1 µM]	1%	.	-10%	-7%	.	3%	-3%[46.1 µM]
O=C(N/N=C/C=C/c1ccccc1)c1ccccc1Br	-1%	-12%	0%	0%	41%[activator]	-2.9%	-25%	0%
COC(=O)c1sccc1NC(=S)N1CCN(c2ccc(F)cc2)CC1	21%	-26%	0%	-23%	-24%	-2.5%	1%	1%
CCN(CC(=O)Nc1c(F)cccc1F)C(=O)COc1cccc2c1OC(C)(C)C2	9%[46.1 µM]	1%	.	-6%	-7%	.	.	-22%
Cc1ccc(C(=O)NCC(=O)NNC(=O)CN(C)S(=O)(=O)c2ccc(Cl)cc2)s1	-5%[46.1 µM]	-1%	.	3%	10%	.	.	-6%
CC(C)(CNC(=O)CNC(=O)c1ccc(Cl)cc1Cl)N1CCOCC1	-26%	-4%	.	0%	-5%	.	.	-16%
O=[N+]([O-])c1cccc(C(O)C23CN4CN(CN(C4)C2)C3)c1 (stereo not drawn)	25%	2%	.	2%	-10%	.	1%	0%
Oc1oc(-c2ccc(Br)cc2)nc1/C=N/c1ccccn1	?	0%	.	5%	38%[activator]	.	.	2%
Cc1ccc(NC(=O)CCc2nnc3ccc(N4CCC5(CC4)OCCO5)nn23)cc1F	-23%[46.1 µM]	-3%	.	-7%	-2%	.	-4%	-14%[46.1 µM]
COc1cc(/C=N/N=C2/NC(=O)C(c3ccccc3)S2)ccc1O (stereo not drawn)	15%	1%	?	35%	29%	-15%	12%	4.5µM*
O=c1c2cnn(-c3ccc(F)cc3)c2ncn1Cc1cccc(Cl)c1	?	.	0%	.	0%	-1.0%	.	?
